PINK1 expr mod: A Quantitative High throughput Screen to Identify Chemical Modulators of PINK1 Expression; actives 0.2% (n = 410,000); AID 624263, 2012; Potency, µM (titrated, usually from 76.6 µM), without a hit: at the highest dose activation (PINK1 increase), hits mostly activators; PINK1 immunofluorescence, high-content cytometry, 24 h; active = well fitted activation curve with a large enough effect; inconclusive = small, poorly fitted or top-dose-only effect; inactive = flat fitted curve, though single readings scatter; cell line not stated here;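 note: % of control where 0% means no effect; nearly all actives have a fitted effect of over 65% in size; a mitochondrial uncoupler was the plate control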
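Fluorescence from anti-PINK1 antibody, together with nuclear and cell stains, was scanned on a laser-scanning cytometer. Before staining, stable-line cells were incubated 24 hours with compounds at 5 concentrations; primary antibody 12 h at 10 degrees C.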
* marks the source's active call; other numbers are inactive results; ? = inconclusive. Potency is the fitted concentration of half-maximal effect. These rows are one share of the data. The share of hits here may be higher or lower than overall.

SMILES	PINK1 expr mod
COc1ccc(Cc2nc3ccc(C(=O)NCCc4ccc(OC)c(OC)c4)cc3o2)cc1	0.6%
Cc1cccc(NC(=O)CSc2nc(=O)n(Cc3ccco3)c3c2CCC3)c1C	-0.3%
O=C(NC1CC(=O)N(c2cccc(F)c2)C1)c1ccc2c(c1)OCO2 (stereo unspecified)	1.1%
Nc1ccc2c(c1)C=C/C2=C\c1ccccc1	-0.2%
CCOc1ccc(/C=C/c2nc(C#N)c(Nc3ccc(OCC)cc3)o2)cc1	-1.4%
COc1ccc(NC(=O)C(c2ccc(C)cc2)N(C)C(=O)/C=C\c2ccc3c(c2)OCO3)cc1 (stereo unspecified)	-1.7%
Cc1ccc(OCc2nc3ccccc3n2Cc2ccccc2Cl)cc1	28%
Cc1ccc(CN2CCc3nc(N4CCN(c5ccccc5F)CC4)ncc3C2)s1	2.0%
CCCn1c(CCC(=O)Nc2cccc(C)c2C)nc2cccnc21	-0.1%
CCCCC(=O)N1c2ccccc2C(C)(c2ccccc2)CC1(C)C (stereo unspecified)	3.8%
Cc1c(-c2ccccc2)c(=O)oc2c(CN3CCCC3)c(O)ccc12	1.3%
COc1cc(Cl)c(C)cc1NC(=O)Cn1c(C)c2cnn(-c3ccccc3)c(=O)c2c1C	0.8%
CSc1ccc(/C=C2\C=Cc3ccc([N+](=O)[O-])cc32)cc1	?
CCc1nnc2c(Nc3ccccc3Br)nc3ccccc3n12	4.8%
C#CCSc1nc2sc3c(c2c(=O)n1-c1cccc(OC)c1)CCN(C(C)=O)C3	2.2%
CC(C)CN(CC(C)C)c1nnc(NC(=O)Nc2cccc(C(F)(F)F)c2)s1	2.2%
CCc1ccc(-c2nn(-c3ccc(OC)cc3)c3c2cnc2ccc(OC)cc23)cc1	2.1%
Cc1ccc(C)c(CN2C(=O)c3ccccc3S(=O)(=O)c3ccc(C(=O)N(C)C4CCCCC4)cc32)c1	2.2%
COc1ccc(-n2nc(C(=O)N(C)c3cc(Cl)ccc3OC)c3c4ccccc4n(C)c3c2=O)cc1	0.6%
CN(C)c1ccc(C(CNS(=O)(=O)c2ccc(F)cc2F)N2CCOCC2)cc1 (stereo unspecified)	-1.4%
CCOC(=O)N1CCN(C(=O)CN(c2ccccc2F)S(=O)(=O)c2ccc(C)cc2)CC1	0.7%
CC(C)C(=O)c1cc2c(cc1NC(=O)c1ccccc1F)OCCO2	5.6%
O=S(=O)(c1ccc(-c2cc(C(F)(F)F)on2)s1)N1CCN(c2ccccc2)CC1	0.7%
CSc1ncc(Cl)c(C(=O)N(Cc2ccc(N(C)C)cc2)Cc2ccco2)n1	-0.1%
O=C(Nc1ccc2oc(-c3cccnc3)nc2c1)c1ccc(-c2cccc(OC(F)(F)F)c2)o1	?
CCOC(=O)c1c(NC(=O)CCCOc2ccc(Cl)cc2)sc2c1CCC2	0.6%
COc1cc(C2C(=O)N(C3CCCCC3)CC(=O)N2C2CCCCC2)ccc1OC(C)C (stereo unspecified)	2.5%
COc1ccc(CCC(=O)NCCc2csc(-c3ccc(F)cc3)n2)cc1	4.6%
COc1cccc(C(=O)Nc2ccc3nc(SCC(=O)N4CCc5ccccc54)sc3c2)c1	0.6%
CCCN1CNc2c(c(=O)[nH]c(=S)n2CCc2ccc(C)cc2C)C1	0.0%
CCc1ccc(CNC(=O)Cn2nc(C)n3c(cc4cc(C)ccc43)c2=O)cc1	-0.5%
CCCc1nn2c(=O)cc(COC(=O)c3ccc(NC(=O)c4cccs4)cc3)nc2s1	0.7%
COc1ccc(-c2cc(C)no2)cc1S(=O)(=O)Nc1c(C)cc(C)cc1C	7.2%
Cc1ccccc1C(=O)NCCc1sc(-c2ccc(Cl)cc2)nc1C	1.3%
O=C(C[n+]1ccccc1Br)c1ccc(Cl)cc1	3.3%
Fc1ccc(C(c2nnc(-c3ccccc3)o2)N2CCN(c3cccc(Cl)c3)CC2)cc1 (stereo unspecified)	3.3%
COc1ccc(CCNS(=O)(=O)c2ccc(N3CCCCS3(=O)=O)cc2)cc1OC	-0.8%
CCOc1ccc(CCNC(=O)C2CCCN(c3nnc(C)c4c(C)n(-c5ccccc5)nc34)C2)cc1 (stereo unspecified)	-0.6%
CCc1cccc(C)c1NC(=O)Cn1cc2c(n1)CCCC2	0.5%
COc1cccc(-n2c(=O)c3c4c(sc3n(Cc3ccc(F)cc3Cl)c2=O)CCCC4)c1	-0.2%

Some of the entries above, reformatted:
| SMILES | PINK1 expr mod |
| --- | --- |
| CCCc1nn2c(=O)cc(COC(=O)c3ccc(NC(=O)c4cccs4)cc3)nc2s1 | 0.7% |
| CCc1ccc(CNC(=O)Cn2nc(C)n3c(cc4cc(C)ccc43)c2=O)cc1 | -0.5% |

Other results follow.
SMILES	PINK1 expr mod
Cn1c(=O)c2c(-c3ccccc3Cl)n(-c3cc(Cl)ccc3O)cc2n(C)c1=O	0.7%
COc1ccc(CNCc2ccc(C(=O)O)s2)cc1	0.5%
COc1ccc(-c2nnc(SCC(=O)Nc3ccccc3C)o2)cc1OC	-0.1%
CCOc1ccc(-n2c(SCC(=O)Nc3cc(C)ccc3C)nc3c([nH]c4ccccc43)c2=O)cc1	-3.0%
COC(=O)c1c(-c2cccs2)csc1NC(=O)c1ccc(Cl)cc1	4.0%
Cc1ccc(NC(=O)Cn2c(=O)n(-c3ccccc3)c(=O)c3c4c(sc32)CCCC4)cc1	2.1%
COc1ccc(CNS(=O)(=O)c2ccc(-c3cc(C(F)(F)F)on3)s2)cc1OC	0.7%
Cc1cccc(OCCSc2nc3ccccc3n2CC(=O)N2CCCCC2)c1C	-0.9%
COc1ccccc1Nc1cc(C(=O)NCc2cccs2)c2ccccc2n1	1.1%
COC(=O)COc1ccc(C2C(C(=O)OC)=C(C)NC3=C2C(=O)c2ccccc23)cc1OC (stereo unspecified)	-1.4%
CCOc1ccc(N(Cc2cc3cc(C)ccc3[nH]c2=O)C(=O)c2cccc(Cl)c2)cc1	-0.6%
COc1cccc(C2CC(=O)N(c3ccc(F)cc3)C3=C2C(=O)OC3)c1OC (stereo unspecified)	0.4%
Cc1ccc(-n2nc(C)c3c(C)cc(=O)n(CC(=O)NC(C)C)c32)cc1	11%
CCOC(=O)c1cnc2ccc(OCC)cc2c1N1CCN(c2ccccc2F)CC1	2.0%
O=C(CSc1nccn1Cc1ccccc1)NCc1ccco1	-1.2%
COc1cc(OC)c(NC(=O)Cn2ncn3c(cc4cc(C)ccc43)c2=O)cc1Cl	1.1%
Cc1ccc(C)c(NC(=O)N2CCN(C(=O)c3nsc4ccccc34)CC2)c1	-0.5%
COc1ccc(NC(=O)c2cc(S(=O)(=O)N3CCCCCC3)cn2C)c(OC)c1	0.4%
COc1ccccc1N1CCN(c2nc3c(S(=O)(=O)c4ccc(C)c(C)c4)nnn3c3ccc(Cl)cc23)CC1	-1.7%
CCOc1cc(C2c3c(-c4ccccc4O)n[nH]c3C(=O)N2CCc2ccccc2)ccc1O (stereo unspecified)	2.4%
Cc1cc(C)cc(NC(=O)CCCc2nnc3n(CC(C)C)c(=O)c4sccc4n23)c1	0.5%
CCC1CN(C(=O)N2CCC(C(=O)NCc3cccs3)CC2)c2cc(C)ccc2O1 (stereo unspecified)	-0.1%
CCCN1CCN(CCNC(=O)Nc2cc(Cl)c(OC)cc2OC)CC1	0.9%
COc1ccc(Cn2ccc3nc(C)c(C(=O)N4CCN(c5ccc(F)cc5)CC4)cc3c2=O)cc1	0.0%
CCOc1ccccc1CNC(=O)C1CCN(S(=O)(=O)c2ccc3c(ccn3C)c2)CC1	1.9%
COC(=O)c1cc(OC)c(OC)cc1NC(=O)c1ccc2c(c1)CCN2S(C)(=O)=O	-0.9%
COC(=O)c1cc2oc3ccccc3c2n1Cc1cc(C)ccc1C	-1.2%
COc1ccc(C(=O)N(Cc2cc(OC)c(OC)c(OC)c2)c2ccccn2)cc1	2.9%
COc1ccc(NC(=O)CN2C(=O)CCc3cc(S(=O)(=O)N4CCOCC4)ccc32)c(OC)c1	-0.4%
CCc1cccc(CC)c1NC(=O)CN1C(=O)C(=O)c2ccccc21	5.9%
Cc1cc(OC(C)C(=O)Nc2sc3c(c2C(N)=O)CCCC3)ccc1Cl (stereo unspecified)	-0.1%
CCCOc1ccc(C2CC(=O)Nc3c2c(=O)n(C)c(=O)n3C)cc1OC (stereo unspecified)	3.6%
O=C(CCSCc1ccccc1F)N1CCN(c2ccc(Cl)cc2)CC1	-0.1%
Cc1cccc(CNC(=O)c2oc3c(c2C)-c2nn(Cc4cccc(Cl)c4)cc2CC3)c1	17%
CCc1ccc(NC(=O)C(=O)NCCc2sc(-c3ccc(C)cc3)nc2C)cc1	-1.3%
COc1ccc(NC(=O)CSc2nnc(-c3cccs3)o2)cc1	0.4%
Cc1c(CNC2CCCCC2)c(C(=O)O)c(C)n1Cc1c(F)cccc1Cl	-1.2%
Cc1csc2nc(COc3ccc(NC(=O)c4ccccc4F)cc3)cc(=O)n12	1.0%
COc1cc(CN2CCCC(n3cc(C(=O)N4CCCCC4)nn3)C2)cc(OC)c1OC (stereo unspecified)	1.2%
Cc1cnc(SCc2ccccn2)nc1C1CCCN(Cc2ccsc2)C1 (stereo unspecified)	1.5%
COc1cccc(NC(=O)Nc2cc(-c3cn4cccnc4n3)ccc2C)c1	16%
Cc1cc(C)c2nc(NC(=O)c3ccc(S(=O)(=O)N4CCCC4)cc3)sc2c1	-4.2%
COc1ccccc1N1CCN(S(=O)(=O)c2c(C)nc3sccn3c2=O)CC1	1.1%
COc1ccc(C2C(=O)N(C3CCCCCC3)CC(=O)N2Cc2ccc(C)cc2)cc1 (stereo unspecified)	2.2%
COc1cc2nc(N3CCCCC3)nc(NC(C)C)c2cc1OC	0.7%
Cc1ccc2nc(-c3ccc(Cl)c(NC(=O)c4ccc(Br)o4)c3)oc2c1	0.9%
O=c1n(Cc2ccc(F)cc2)c2ccccc2c2nc(-c3ccccc3)nn12	2.5%
Cc1ccc(NC(=O)c2cnc(SCC(=O)N3CCOCC3)n(C)c2=O)cc1C	-3.6%
COc1ccccc1N1CCN(c2ccc(-c3nc(-c4ccccc4C)no3)cc2[N+](=O)[O-])CC1	1.6%
COCc1cc(C)nc2sc3c(=O)n(-c4ccccc4C(F)(F)F)nnc3c12	2.3%
COc1ccc(C(=O)N=c2nc(-c3ccccc3)n(-c3ccccc3)s2)cc1	0.7%
COc1cccc(-c2cn3c(n2)sc2cc(C(=O)NC4CCCCC4)ccc23)c1	3.6%
Cc1ncc2c(c1CNS(=O)(=O)N(C)C)CCN(C(=O)c1ccc(-c3ccc(F)cc3)cc1)C2	-1.1%
Cc1ccc(NC(=O)CCc2nnc3n(CC(C)C)c(=O)c4ccccc4n23)cc1C	0.5%
COCCCn1c(=N)c(C(=O)NC2CCCC2)cc2c(=O)n3cccc(C)c3nc21	0.5%
O=C(Cn1c(=O)c2ccccc2n2nncc12)Nc1cccc(F)c1	6.1%
CCCCNc1nc(Oc2ccc(=O)[nH]n2)nc(N(C)C)n1	1.2%
N#Cc1nc(-c2ccc(COc3ccccc3)o2)oc1NCc1cccnc1	0.9%
Cc1ccc(-c2nc(C)c(CCNC(=O)C(=O)Nc3ccc4c(c3)OCO4)s2)cc1	1.2%
CCN(CC)S(=O)(=O)c1ccc2oc(C(=O)Nc3ccc(Br)cc3F)c(C)c2c1	8.6%
Additional compounds follow:
SMILES	PINK1 expr mod
C=Cc1ccc(Cn2c(=O)n(-c3cccc(Cl)c3)c(=O)c3c4c(sc32)CN(C(C)=O)CC4)cc1	1.7%
COc1ccccc1CNC(=O)CCn1c(=O)c2ccccc2n(CC(=O)Nc2cccc(Cl)c2)c1=O	11%
COc1ccccc1C(=O)N(Cc1nc(-c2cccc(C)c2)no1)C(C)C	2.8%
Cc1ccc2c(=O)cc(C(=O)Nc3c(C(=O)c4ccc(F)cc4)oc4ccccc34)oc2c1C	6.1%
Cc1c(NC(=O)C(C)(C)Oc2ccc(Cl)cc2)cccc1-c1nc2ccccc2o1	1.3%
COc1ccc(/C=C/c2nc(C#N)c(NCCc3ccccc3)o2)cc1OC	6.5%
Cc1c(CN2CCOc3c(O)cc(-c4nc5ccccc5s4)cc3C2)cnn1C	1.2%
O=C(CCCn1c(=O)c2cccn2c2ccccc21)Nc1cccc(Cl)c1	7.7%
CNC(=O)c1ccc(Nc2nnc(-c3ccc(C)c(S(=O)(=O)N4CCOCC4)c3)c3ccccc23)cc1	5.5%
Cc1cc2nc(NC(=O)c3ccc(S(=O)(=O)N4CCOCC4)cc3)sc2cc1C	-4.5%
Cc1ccc(CN2CCC(CNC(=O)Nc3c(C)cccc3C)C2)cc1 (stereo unspecified)	0.1%
CCOC(=O)c1ccc(NC(=O)C(C)Sc2nc(=O)cc(N)n2CCc2ccccc2)cc1 (stereo unspecified)	1.6%
Cc1ccc(NC(=O)CSCc2cnn(-c3ccccc3)c2-n2cccc2)c(Cl)c1	-0.6%
Cc1ccc(C)c(N2CCN(CCCNC(=O)c3cnn(-c4ccccc4Cl)c3C3CCN(C(=O)OC(C)(C)C)CC3)CC2)c1	-1.8%
COc1ccccc1NC(=O)CSc1ncc2c(n1)-c1cc(Cl)ccc1N(Cc1ccccc1)S2(=O)=O	-0.1%

Reprinted at random: six records from the list, in no set order.
SMILES	PINK1 expr mod
COc1ccccc1CNC(=O)CCn1c(=O)c2ccccc2n(CC(=O)Nc2cccc(Cl)c2)c1=O	11%
Cc1ccc(NC(=O)CSCc2cnn(-c3ccccc3)c2-n2cccc2)c(Cl)c1	-0.6%
CCOC(=O)c1ccc(NC(=O)C(C)Sc2nc(=O)cc(N)n2CCc2ccccc2)cc1 (stereo unspecified)	1.6%
Cc1ccc2c(=O)cc(C(=O)Nc3c(C(=O)c4ccc(F)cc4)oc4ccccc34)oc2c1C	6.1%
Cc1ccc(C)c(N2CCN(CCCNC(=O)c3cnn(-c4ccccc4Cl)c3C3CCN(C(=O)OC(C)(C)C)CC3)CC2)c1	-1.8%
O=C(CCCn1c(=O)c2cccn2c2ccccc21)Nc1cccc(Cl)c1	7.7%

High-throughput results deposited in PubChem BioAssay by National Center for Advancing Translational Sciences (NCATS).
